# High-throughput results (PubChem)
# ID4 binder = ID4 (human) binding | AID 624137 | small molecule microarray, Flag-ID4 binding, fluorescence F/B | calls only | 1.2% of 31,000 active | P47928;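 active means spot signal over background at p below 0.07 in all four prints; compounds were printed on slides so no solution concentration is given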;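 further: a binder raises fluorescence above local background on the spot; about 2 pmol printed per array spot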
# Target sequence (P47928 whole entry, looked up): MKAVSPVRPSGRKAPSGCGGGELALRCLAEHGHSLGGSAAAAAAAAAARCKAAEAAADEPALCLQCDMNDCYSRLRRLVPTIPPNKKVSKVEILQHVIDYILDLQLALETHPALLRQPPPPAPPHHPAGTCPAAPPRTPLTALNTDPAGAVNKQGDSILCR
# Calls only; i = inactive; + = active, no number.
SMILES,ID4 binder
COc1ccc(-c2nc(SCC(=O)N3c4ccccc4Sc4ccccc43)n[nH]2)cc1,i
CC(C)CC#Cc1ccc2c(c1)O[C@H](CN(C)C)[C@@H](C)CN([C@@H](C)CO)S2(=O)=O,i
CC(C)C(C(=O)OC1CSCC1NC(=O)c1ccccc1)N1C(=O)c2ccccc2C1=O (stereo not drawn),i
COc1ccc(OC)c(S(=O)(=O)N2CCC(C(=O)Nc3ccc(Cl)c(C(F)(F)F)c3)CC2)c1,i
COc1cc(NC(=O)COc2ccc(Br)cc2)ccc1NC(=O)c1ccccc1Cl,i
CC(C)Cc1ccc(/C=C/C(=O)N2CCOCC2)cc1,i
O=C(CSc1nnc(-c2ccncc2)n1-c1ccccc1)c1c[nH]c2ccccc12,i
C[C@@H]1CN([C@@H](C)CO)C(=O)c2cc(C#CCc3ccccc3)cnc2O[C@H]1CN(C)C(=O)C1CCC1,i
COc1c(OC)c2occc2c2oc(=O)ccc12,i
COc1cccc(NC(=O)CSc2nnc(-c3ccncc3)n2-c2ccc(C)cc2)c1,i
CO[C@@H](CN(C)S(=O)(=O)c1cccc(Cl)c1)[C@@H](C)CN([C@H](C)CO)S(=O)(=O)c1ccc(Cl)cc1,i
Cc1cc(NC(=O)C(=O)NCCCN2CCOCC2)ccc1Br,i
COC(=O)c1ccc(NC(=O)CN(c2ccc(I)cc2)S(C)(=O)=O)cc1,i
Cc1ccc(CN(C)C[C@@H]2OCc3cn(nn3)CCCC(=O)N([C@@H](C)CO)C[C@H]2C)cc1,i
CC(C)CC#Cc1ccc2c(c1)O[C@@H](CN(C)C(=O)c1ccccc1)[C@@H](C)CN([C@H](C)CO)S2(=O)=O,i
c1cnc(N2CCN(Cc3ccc4c(c3)OCO4)CC2)nc1,i
O=C(CSc1ccccn1)Nc1cccc2ccccc12,i
CSc1nnc(SC)n1CCNC(=O)c1c(Cl)cccc1Cl,i
COc1cc(NC(=O)COc2c(Cl)c(C)c(Cl)c(C)c2Cl)c(OC)cc1Cl,i
COc1c2c(cc3oc(=O)ccc13)OC(C)(C)C=C2,i
CCCC#Cc1cnc2c(c1)C(=O)N([C@H](C)CO)C[C@H](C)[C@@H](CN(C)Cc1ccc3c(c1)OCO3)O2,i
C[C@H]1CN([C@@H](C)CO)C(=O)c2cc(-c3cccc(C#N)c3)cnc2O[C@H]1CN(C)C,i
COc1ccccc1-c1ccc2c(c1)O[C@H](CN(C)C(C)=O)[C@H](C)CN([C@@H](C)CO)S2(=O)=O,i
O=C(COc1ccc([N+](=O)[O-])cc1)Nc1cccnc1,i
O=C(CC1NCCNC1=O)Nc1cccc(C(F)(F)F)c1 (stereo not drawn),i

# Going on with the list:
SMILES,ID4 binder
CN1OC(COC(=O)c2cc(Cl)cc(Cl)c2)CC12C1CC3CC(C1)CC2C3 (stereo not drawn),i
CO[C@@H]1CN(C)C(=O)c2cc(NC(=O)C3CC3)ccc2OC[C@@H](C)N(C)C[C@H]1C,i
C/C=C/c1ccc2c(c1)O[C@H](CN(C)Cc1ccccc1F)[C@H](C)CN([C@H](C)CO)S2(=O)=O,i
CCC/C=C/C=C/C1CC(O)C(O)C1C(=O)O (stereo not drawn),i
CCC(Sc1nnc(N)s1)C(=O)Nc1sc2c(c1C#N)CCCC2 (stereo not drawn),i
O=C(c1ccccc1NS(=O)(=O)c1ccccc1[N+](=O)[O-])N1CCOCC1,i
COc1ccc(CCNC(=O)C(=O)c2c(-c3ccccc3)[nH]c3ccccc23)cc1OC,i
COC(=O)c1ccccc1NC(=O)CN1C(=O)c2ccccc2S1(=O)=O,i
Cc1cccc(OCC(=O)Nc2ccc3oc(-c4ccncc4)nc3c2)c1,i
CCCN(C)C[C@@H]1Oc2cc(C#Cc3ccc(F)cc3)ccc2S(=O)(=O)N([C@@H](C)CO)C[C@H]1C,i
C[C@@H]1CN([C@@H](C)CO)C(=O)Cc2cc(N(C)C)ccc2O[C@H]1CN(C)C(=O)Nc1ccc(F)cc1,i
CC(C)OC(=O)N(C)C[C@@H]1OCc2ccccc2-c2ccccc2C(=O)N([C@@H](C)CO)C[C@@H]1C,i
COc1ccc(OC)c(C(=O)CSc2nnc(-c3ccccc3F)n2-c2ccccc2)c1,i
O=C(CSc1nc(O)cc(=O)[nH]1)N(c1ccccc1)c1ccccc1,i
O=C(O)c1cccc(NS(=O)(=O)c2cccc3cccnc23)c1,i
C[C@H](CO)N1C[C@H](C)[C@@H](CN(C)S(=O)(=O)c2cccc(F)c2)Oc2ncc(C#CC3CCCCC3)cc2C1=O,i
CC(C)(C)c1ccc(S(=O)(=O)NCc2cccnc2)cc1,i
CCOC(=O)[C@H](CCc1ccccc1)N[C@H](C)C(=O)N1C2CCCCC2C[C@H]1C(=O)O (stereo partly drawn),i
COc1ccc(OC)c(S(=O)(=O)Nc2ccc(O)c(Sc3nc4ccccc4s3)c2)c1,i
CCC(SC1=NCCS1)C(=O)Nc1ccc(-c2nc3ccc(C)cc3s2)cc1 (stereo not drawn),i
COCC#Cc1cnc2c(c1)C(=O)N([C@@H](C)CO)C[C@@H](C)[C@@H](CN(C)C(=O)CCN1CCCCC1)O2,i
CN(C)C(=O)C[C@H]1CC[C@H](NC(=O)Nc2cccc(F)c2)[C@H](CO)O1,i
COc1ccc(OCC(=O)Nc2cccc(C(=O)O)c2C)cc1,i
CSc1nc2n(n1)C(=O)CC(C)(C)N2,i
O=C(C[C@@H]1C=C[C@H](NS(=O)(=O)c2ccc(F)cc2)[C@H](CO)O1)NC1CCCCC1,i

# The results go on:
SMILES,ID4 binder
CS(=O)(=O)N(CC(=O)Nc1ccc(Br)cc1)c1cc(Cl)cc(Cl)c1,i
Cn1c(=O)c([N+](=O)[O-])c(NCc2ccco2)c2ccccc21,i
C[C@H](CO)N1C[C@H](C)[C@H](CN(C)C)Oc2ncc(C#CC3(O)CCCC3)cc2C1=O,i
CCc1ccc2oc(-c3cccc(NC(=O)COc4ccccc4)c3)nc2c1,i
O=C(C[C@H]1C=C[C@@H](NC(=O)c2ccccn2)[C@H](CO)O1)NCc1cc(F)cc(F)c1,i
COc1cc([N+](=O)[O-])ccc1NC(=O)CN(C)S(=O)(=O)c1ccc(Br)cc1,i
C[C@H]1CN([C@@H](C)CO)C(=O)c2c(c3ccccc3n2C)-c2ccccc2CO[C@@H]1CN(C)C,i
CN(c1cccc(NC(=O)Cc2ccccc2[N+](=O)[O-])c1)S(C)(=O)=O,i
Cc1ccc(-c2nc3cc(Cl)ccc3o2)cc1NC(=O)COc1ccccc1[N+](=O)[O-],i
CCC(=O)N(C)C[C@@H]1Oc2ncc(-c3ccccc3F)cc2C(=O)N([C@@H](C)CO)C[C@H]1C,i
O=C(C[C@@H]1C[C@H]2c3cc(NC(=O)Nc4ccccc4)ccc3O[C@H]2[C@H](CO)O1)NCC1CC1,i
COc1ccc(C#Cc2ccc3c(c2)O[C@@H](CN(C)C(=O)c2ccccn2)[C@@H](C)CN([C@@H](C)CO)S3(=O)=O)cc1,i
O=C(C[C@H]1C=C[C@H](NS(=O)(=O)c2cccc(F)c2)[C@H](CO)O1)N1CCCCC1,i
COC(=O)c1c(NC(=O)c2ccc(N(C)S(=O)(=O)c3ccccc3)cc2)sc2c1CCCC2,i
COC(=O)c1ccccc1NC(=O)CN(C)S(=O)(=O)c1ccc2ccccc2c1,i
Cc1cccc(CN(C)C[C@@H]2Oc3ncc(Br)cc3C(=O)N([C@H](C)CO)C[C@@H]2C)c1,i
C[C@H](CO)N1C[C@H](C)[C@@H](CN(C)Cc2cncnc2)Oc2ncc(C#Cc3ccccn3)cc2C1=O,+
C[C@H](NC(=O)C[C@@H]1C=C[C@@H](NC(=O)C2CCC2)[C@H](CO)O1)c1ccccc1,i
Cc1ccccc1-c1cnc2c(c1)C(=O)N([C@H](C)CO)C[C@H](C)[C@H](CN(C)Cc1ccccc1F)O2,i
COc1cccc(CNC(=O)C[C@@H]2CC[C@@H](NC(=O)C3CCC3)[C@H](CO)O2)c1,i
C[C@H](CO)N1C[C@H](C)[C@@H](CN(C)CC2CC2)Oc2cc(-c3ccc(F)cc3)ccc2S1(=O)=O,i
CO[C@H](CN(C)S(=O)(=O)c1ccc(F)cc1)[C@@H](C)CN(C(=O)Nc1ccccc1F)[C@@H](C)CO,i
COc1ccc(OCC(=O)Nc2cc(-c3nc4ccccc4o3)ccc2C)cc1,i
CC1(C)Cc2c(sc3nc(SCC(=O)c4ccc(Cl)cc4)nc(N)c23)CS1,i
O=C(C[C@@H]1C[C@@H]2c3cc(NC(=O)Nc4ccc(C(F)(F)F)cc4)ccc3O[C@@H]2[C@@H](CO)O1)NCc1cc(F)ccc1F,i

# Some of the entries so far, with each value named.
molecule: CC(C)(C)c1ccc(S(=O)(=O)NCc2cccnc2)cc1
  ID4 binder: i

molecule: CC(C)CC#Cc1ccc2c(c1)O[C@@H](CN(C)C(=O)c1ccccc1)[C@@H](C)CN([C@H](C)CO)S2(=O)=O
  ID4 binder: i

molecule: COc1cc(NC(=O)COc2c(Cl)c(C)c(Cl)c(C)c2Cl)c(OC)cc1Cl
  ID4 binder: i

# The list goes on:
SMILES,ID4 binder
CN1c2ccccc2Oc2nnc(N3CCN(c4ccccc4)CC3)cc21,i
O=C(COc1ccc([N+](=O)[O-])cc1)Nc1ccccc1-c1nc2ccccc2s1,i
O=C1c2ccccc2C(Nc2ccc(S(=O)(=O)N3CCOCC3)cc2)N1Cc1ccccc1Cl (stereo not drawn),i
CC(C)CC#Cc1cnc2c(c1)C(=O)N([C@H](C)CO)C[C@@H](C)[C@@H](CN(C)C(=O)c1ccccc1F)O2,i
Cc1cc(OC(C)c2nc(-c3nonc3N)no2)ccc1Cl (stereo not drawn),i
CCC(=O)N[C@H]1CC[C@@H](CC(=O)NCc2cc(F)cc(F)c2)O[C@@H]1CO,i
O=C(C[C@@H]1C=C[C@@H](NC(=O)CN2CCOCC2)[C@@H](CO)O1)NCc1cccc(F)c1,i
O=C(NCC[C@H]1CC[C@@H](NC(=O)C2CC2)[C@@H](CO)O1)c1cc(Cl)cc(Cl)c1,i
C[C@@H]1CN([C@H](C)CO)C(=O)c2cc(-c3cccc(F)c3)cnc2O[C@H]1CN(C)C(=O)C1CCCCC1,i
C/C=C/c1ccc2c(c1)O[C@@H](CN(C)C(=O)Cc1ccccc1)[C@@H](C)CN([C@@H](C)CO)S2(=O)=O,i
COC(=O)c1ccc(NC(=O)CSc2nnc(-c3ccccc3)n2-c2ccccc2)cc1,i
O=C(C[C@@H]1C=C[C@@H](NC(=O)Nc2ccccc2F)[C@@H](CO)O1)NCc1ccc(F)cc1,i
COc1ccc(-c2cnc3c(c2)C(=O)N([C@H](C)CO)C[C@H](C)[C@@H](CN(C)Cc2cccnc2)O3)cc1,i
COc1ccc(NC(=O)Cn2cnc3sc4c(c3c2=O)CCC(C)C4)c([N+](=O)[O-])c1 (stereo not drawn),i
C[C@@H]1CN([C@H](C)CO)C(=O)c2cc(C#CC3CCCCC3)cnc2O[C@@H]1CN(C)C,i
COc1ccccc1-c1cnc2c(c1)C(=O)N([C@@H](C)CO)C[C@@H](C)[C@H](CN(C)Cc1cccnc1)O2,i
CC(C)=CCc1cc(O[C@@H]2O[C@H](CO)[C@@H](O)[C@H](O)[C@H]2O)cc(CC=C(C)C)c1C(O)C(=O)O (stereo partly drawn),i
Cc1ccccc1-c1cnc2c(c1)C(=O)N([C@@H](C)CO)C[C@H](C)[C@H](CN(C)Cc1ccncc1)O2,i
NC(=S)Cc1c(Cl)sc2ccc(Cl)cc12,i
O=C(CSc1nnc(-c2ccncc2)n1-c1ccccc1)c1ccc(Br)cc1,i
Cc1nc2cc(NC(=O)NCc3ccco3)ccc2n1C,i
O=C(c1ccc2nsnc2c1)N(Cc1ccccn1)Cc1ccccn1,i
O=C(CSc1nnc(-c2ccc(Br)cc2)o1)Nc1cccc(C(=O)O)c1,i
C[C@H]1CN([C@@H](C)CO)S(=O)(=O)c2ccc(C#CC3CCCC3)cc2O[C@H]1CN(C)CC1CC1,i
CC(=O)N[C@@H]1CC[C@@H](CCNC(=O)C2CCC2)O[C@@H]1CO,i

# Structures above that contain bromine:
SMILES,ID4 binder
COc1cc(NC(=O)COc2ccc(Br)cc2)ccc1NC(=O)c1ccccc1Cl,i
Cc1cc(NC(=O)C(=O)NCCCN2CCOCC2)ccc1Br,i
CS(=O)(=O)N(CC(=O)Nc1ccc(Br)cc1)c1cc(Cl)cc(Cl)c1,i
COc1cc([N+](=O)[O-])ccc1NC(=O)CN(C)S(=O)(=O)c1ccc(Br)cc1,i
Cc1cccc(CN(C)C[C@@H]2Oc3ncc(Br)cc3C(=O)N([C@H](C)CO)C[C@@H]2C)c1,i
O=C(CSc1nnc(-c2ccncc2)n1-c1ccccc1)c1ccc(Br)cc1,i
O=C(CSc1nnc(-c2ccc(Br)cc2)o1)Nc1cccc(C(=O)O)c1,i

# More entries follow:
SMILES,ID4 binder
CC(C)NC(=O)N[C@H]1C=C[C@H](CC(=O)NCCCN(C)C)O[C@H]1CO,i
Cc1cc(Cl)c(S(=O)(=O)N2CCCC2)cc1OCC(N)=O,i
C[C@H](CO)N1C[C@H](C)[C@@H](CN(C)C)Oc2ccc(NC(=O)Cc3ccccc3)cc2CC1=O,i
OC(CN1CCNCC1)Cn1c2ccc(Br)cc2c2cc(Br)ccc21 (stereo not drawn),i
Cc1nnc(SCC(=O)Nc2ccc(I)cc2C)s1,i
C[C@@H]1CN([C@@H](C)CO)C(=O)c2cc(-c3cncnc3)cnc2O[C@@H]1CN(C)C(=O)Cc1cccnc1,i
CC(C)NC(=O)N(C)C[C@@H]1OCc2ccccc2-c2ccccc2C(=O)N([C@@H](C)CO)C[C@@H]1C,i
CNC[C@H]1Oc2cc(Br)ccc2S(=O)(=O)N([C@@H](C)CO)C[C@@H]1C,i
O=c1cc(-c2ccccc2)oc2cccc(O)c12,i
O=C(C[C@@H]1C=C[C@H](NC(=O)C2CC2)[C@@H](CO)O1)Nc1ccccc1,i

# These rows are one share of the data (hit frequency here may not be typical).
